Screening results from PubChem.
miR-21 reporter = raises the signal of a miR-21 reporter; HeLa miR-21 FLuc reporter, luciferase, 48 h; Potency, µM (series often up to 38.3 µM), for inactives: at the top dose reporter change, positive = more light; 340,000 tested, under 10 active; AID 2288; active = well fitted rising curve with a large enough effect; inconclusive = small, poorly fitted or top-dose-only effect; inactive = no such curve, though single readings can be large or run the other way;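 further: % of control where 0% means no effect; miR-21 action dims this reporter so a rising signal means less miR-21 action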
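Luminescence from a firefly luciferase reporter carrying a miR-21 binding site downstream, stably expressed under a CMV promoter in HeLa cells that make miR-21 endogenously, reports miRNA modulation after 48 h compound exposure up to approximately 40uM final.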
* marks the source's active call; other numbers are inactive results; ? = inconclusive.

| SMILES | miR-21 reporter |
| --- | --- |
| COc1ccc(NC(=O)N(C(C)C)C2CCN(C(C)=O)CC2)c(OC)c1 | 0% |
| COc1cc(NC(=O)CCc2nc3cccnc3n2Cc2cccs2)cc(OC)c1OC | 14% |
| COc1cc(OC)cc(-c2nc3nc(C)c(CCC(=O)Nc4cc(C)cc(C)c4)c(C)n3n2)c1 | -2% |
| COc1ccc(CNc2nc(-c3ccccc3)nn2C(=O)c2ccccc2OC)cc1 | -16% |
| Cc1oc2ncn(CC(C)C)c(=O)c2c1C(=O)N1CCN(c2ccccc2F)CC1 | -2% |
| Cc1ccc(NC(=O)CSc2nc3nccnc3c(=O)n2CCc2c[nH]c3ccccc23)c(C)c1 | -7% |
| CCOc1ccccc1CNC(=O)C1CCN(C(=O)N2CCOc3ccc(Cl)cc32)CC1 | -14% |
| O=C(Cn1cc(S(=O)(=O)N2CCN(c3ccccc3F)CC2)c2ccccc2c1=O)Nc1ccc(F)cc1Cl | -8% |
| CCOc1ccc(NC(=O)Cn2cc(C(=O)c3ccccc3)c(=O)c3cc(OC)ccc32)cc1 | -9% |
| Cc1cccc2cc(-c3nc(-c4cccs4)no3)c(=O)oc12 | -17% |
| CCCCN(C)CCNC(=O)c1cc(-c2ccc(Cl)s2)nc2ccccc12 | ? |
| O=C(c1cc2c(=O)oc3ccccc3c2s1)N1CCN(c2ccccc2)CC1 | -5% |
| COc1ccc(N(C)C(=O)c2cc(S(=O)(=O)N3CCc4ccccc43)cn2C)c(OC)c1 | 0% |
| COc1ccc(OC)c(CNC(=O)c2ccc3c(c2)c(C)c(C)n3Cc2ccc(Cl)cc2)c1 | 21% |
| CC(=O)Nc1ccc(S(=O)(=O)NCCc2csc3nc(-c4ccc(Cl)cc4)nn23)cc1 | 18% |
| COc1ccc(CN2CCN(c3ncnc4sc5c(c34)CCCC5)CC2)cc1F | -1% |
| O=c1oc2ccc3ccccc3c2cc1-c1nnc(Nc2ccc(Cl)cc2Cl)s1 | -2% |
| COc1ccc(C(=O)NCc2ccc3c(c2)CCN3C(C)=O)cc1OC | 10% |
| O=C(c1ccc2c(=O)n(CCc3ccccc3)c(=O)[nH]c2c1)N1CCN(c2ccc(Cl)cc2)CC1 | ? |
| COc1ccccc1Cn1c(CNS(=O)(=O)c2c(C)cc(C)cc2C)nc2cccnc21 | 26% |
| COc1ccc2c(c1)CC(C(=O)Nc1c(C)cc(C)cc1C)CO2 (stereo not drawn) | -4% |
| COc1cc(NC(=O)Cn2c(=O)n(Cc3ccccc3OC)c(=O)c3cccnc32)cc(OC)c1 | -8% |
| Cc1ccc2nc(N3C(=O)C(O)=C(C(=O)c4ccco4)C3c3ccc(O)cc3)sc2c1 (stereo not drawn) | -14% |
| Cc1ccc(NC(=O)c2cccc(N3CCCS3(=O)=O)c2)cc1C | -44% |
| CCCCOc1ccc(C(=O)Nc2sc3c(c2C(=O)OCC)CCCCC3)cc1 | -4% |
| COc1cc(CNC(=O)c2ccc3nc(Cc4ccccc4)oc3c2)cc(OC)c1OC | ? |
| Cc1ccc(CCNC(=O)C2CCN(c3nnc(C)c4c(C)n(-c5ccccc5)nc34)CC2)cc1 | 3% |
| CCCc1cc(=O)[nH]c(Nc2ccccc2O)n1 | -2% |
| COc1ccc(CNC(=O)c2cnn3c(C)c(Cc4ccc(F)cc4)c(C)nc23)cc1 | 1% |
| CCOc1ccc(C2c3c(oc4ccc(C)cc4c3=O)C(=O)N2Cc2ccc3c(c2)OCO3)cc1OC (stereo not drawn) | -1% |
| O=C(CSc1nnc(-c2ccc(Br)cc2)n1-c1ccccc1)c1ccccc1 | 0% |
| Cc1oc(-c2cccc(Cl)c2)nc1CSCC(=O)NCc1ccccc1Cl | 7% |
| Cc1ccc(NC(=O)CSC2=Nc3ccccc3C3=NC(Cc4ccccc4)C(=O)N23)cc1C (stereo not drawn) | 6% |
| CCc1ccc(NC(=O)c2cc(S(=O)(=O)NC3CCCC3)ccc2F)cc1 | 29% |
| CCN(C(=O)c1cn(CC(C)C)c(=O)c2cc(OC)c(OC)cc12)c1cc(OC)ccc1OC | -18% |
| Cc1ccc(Cn2cc(S(=O)(=O)c3cccc(Cl)c3)c(=O)c3cc(F)c(N4CCOCC4)cc32)cc1 | -8% |
| Cc1nc2nc(NC(=O)c3ccc(Cl)cc3)[nH]n2c(=O)c1Cc1ccccc1 | 10% |
| CCN(c1ccccc1)S(=O)(=O)c1cc(Br)cc2c1N(C(=O)C1CC1)CC2 | 9% |
| O=C(c1cc2c(=O)oc3ccccc3c2s1)N1CCN(c2cccc(Cl)c2)CC1 | 0% |
| CCOC(=O)c1scc(-c2ccccc2)c1S(=O)(=O)Nc1cc(Cl)c(OC)cc1OC | 5% |
| CCOc1ccc(NC(=O)CN2CCN(S(=O)(=O)c3ccc(OC)cc3)CC2)cc1 | 9% |
| COc1ccccc1CCNC(=O)C(=O)NCC(c1cccs1)S(=O)(=O)c1ccc(C)cc1 (stereo not drawn) | 18% |
| COc1cccc(Nc2nc3c(S(=O)(=O)c4cc(C)ccc4C)nnn3c3ccsc23)c1 | -5% |
| CCc1cccc(-n2c(=O)c3cccnc3n2CC(=O)Nc2ccc(F)c(C)c2)c1 | -3% |
| CCN(Cc1ccccc1)C(=O)Cn1c(=O)n(-c2ccc(C)c(C)c2)c(=O)c2c(C)c(C)sc21 | 21% |
| CC1CCC(N2CC(=O)N(CCC3=CCCCC3)C(c3ccc(F)cc3)C2=O)CC1 (stereo not drawn) | -5% |
| Cc1ccc(SCC(=O)Nc2ccc(O)c(-c3nc4cc(C)ccc4o3)c2)cc1 | -20% |
| COc1ccc(-n2nc(C(=O)NCCCOC(C)C)c3c4ccccc4n(C)c3c2=O)cc1 | -1% |
| CC(C)Nc1nc2c(S(=O)(=O)c3cccc(Cl)c3)nnn2c2ccsc12 | -20% |
| CCOC(=O)c1ccc(CN(Cc2ccc(F)cc2)S(=O)(=O)c2cc(C(=O)Nc3cccc(C(F)(F)F)c3)ccc2F)cc1 | 19% |

Continued.
| SMILES | miR-21 reporter |
| --- | --- |
| O=C(Nc1cccc(F)c1)C1CCN(c2nc3ccccc3[nH]2)CC1 | -8% |
| CC(C)Cc1nn2c(=O)cc(COC(=O)c3ccccc3NC(=O)c3cccs3)nc2s1 | 1% |
| COc1ccc(Cn2ccc3nc(C)c(C(=O)N4CCN(c5cc(C)ccc5C)CC4)cc3c2=O)cc1 | 15% |
| Cn1c(=O)c2c(-c3ccc(Cl)cc3)ccnc2n(C)c1=O | -7% |
| Fc1ccc(N2CCN(Cc3nnc(-c4ccccc4Cl)o3)CC2)cc1 | -11% |
| CC(C)C(=O)Nc1cccc(C(=O)Nc2nnc(C(F)(F)F)s2)c1 | -38% |
| Cc1cc(=O)[nH]c2nnc(SCC(=O)NC(C)(C)C)n12 | 2% |
| CC(C)c1ccccc1NC(=O)CSc1nnc(COc2ccccc2Cl)o1 | -1% |
| COc1ccc(-c2[nH]c3ccccc3c2SCCNC(=O)c2cc(OC)c(OC)c(OC)c2)cc1 | ? |
| O=C(NCc1cccc(Cl)c1)c1ccc2nc(N3CCCCC3)sc2c1 | -37% |
| CCS(=O)(=O)N1CC(=O)N(c2ccc(Cl)cc2C)C(C)(C(=O)NC2CCCCC2)C1 (stereo not drawn) | -8% |
| COc1cc(-c2nc(Cn3nnc(C(=O)Nc4ccccc4C)c3C)c(C)o2)cc(OC)c1OC | -3% |
| O=C1CCSC2(C(=O)N(Cc3ccc(F)cc3)c3ccccc32)N1c1ccc(Cl)cc1 (stereo not drawn) | 26% |
| O=c1n(Cc2ccc(Cl)cc2)c2ccccc2c2nc(-c3ccccc3)nn12 | -17% |
| COc1ccc(Cn2c(=O)c3oc4ccccc4c3n(CC(=O)Nc3ccc(F)cc3F)c2=O)cc1 | -1% |
| Cc1cccc(CNC(=O)c2ccc3c(c2)N(C)C(=O)C2CCCCN32)c1 (stereo not drawn) | 14% |
| COc1ccc(S(=O)(=O)NCC(c2ccco2)S(=O)(=O)c2cccs2)cc1OC (stereo not drawn) | 0% |
| CCCCNC(=O)C1CCN(S(=O)(=O)CCC)CC1 | 0% |
| C#CCn1c(=NC(=O)c2ccc3c(c2)OCCO3)sc2cc(OC)c(OC)cc21 | -3% |
| Cc1cccc(C)c1NC(=O)C(=O)NCC(c1ccc2c(c1)OCO2)N1CCN(C)CC1 (stereo not drawn) | 3% |
| CCOc1ccc(CNC(=O)c2ccc(CS(=O)Cc3ccc(Cl)cc3)o2)cc1 (stereo not drawn) | 2% |
| COc1ccc(C2C=C(c3ccccc3)Nc3nc(NC(=O)c4ccc(C)cc4)nn32)cc1 (stereo not drawn) | -25% |
| COc1ccc(Cn2c(=O)c3cccnc3n(Cc3cccc(OC)c3)c2=O)cc1 | 0% |
| Cc1ccc(CCNC(=O)c2ccc3c(=O)n(-c4ccccc4)c(=O)[nH]c3c2)cc1 | 0% |
| Cc1cccc(C(=O)Nc2cccc(C(=O)OCc3cc(=O)n4c5c(sc4n3)CCCC5)c2)c1 | -49% |
| Cc1cc2nc(-c3ccc(OCc4ccccc4)cc3)cc(C(F)(F)F)n2n1 | -5% |
| Cc1ccc(NC(=O)c2c(C)cc(C)nc2SCC(=O)Nc2ccc(Br)cc2)cc1 | 9% |
| CC(C)(C)OC(=O)N1CCC(c2c(C(=O)N3CCN(c4ccccn4)CC3)cnn2-c2ccc(F)cc2)CC1 | -3% |
| COc1ccc(N(C)C(=O)NCc2noc3ccc(C)cc23)c(OC)c1 | -7% |
| O=C(c1nc(-c2ccc(Cl)cc2)n2c1CCCCC2)N1CCN(c2ccc(F)cc2)CC1 | 12% |

3 compounds from above, arranged by number of heavy atoms, rising.
| SMILES | miR-21 reporter |
| --- | --- |
| O=C(c1nc(-c2ccc(Cl)cc2)n2c1CCCCC2)N1CCN(c2ccc(F)cc2)CC1 | 12% |
| COc1ccc(C2C=C(c3ccccc3)Nc3nc(NC(=O)c4ccc(C)cc4)nn32)cc1 (stereo not drawn) | -25% |
| Cc1cccc(C(=O)Nc2cccc(C(=O)OCc3cc(=O)n4c5c(sc4n3)CCCC5)c2)c1 | -49% |

Looked up above:
CCOc1ccc(CNC(=O)c2ccc(CS(=O)Cc3ccc(Cl)cc3)o2)cc1 (stereo not drawn) – miR-21 reporter: 2%
COc1ccc(C2C=C(c3ccccc3)Nc3nc(NC(=O)c4ccc(C)cc4)nn32)cc1 (stereo not drawn) – miR-21 reporter: -25%

Continuation.
| SMILES | miR-21 reporter |
| --- | --- |
| COC(=O)c1ccc(NC(=O)CSc2nc(=O)[nH]c3c2CCCC3)cc1 | 11% |
| CCOc1ccc(CNC(=O)Cn2nc(C)c3nn(-c4ccc(Cl)cc4)c(C)c3c2=O)cc1 | 0% |
| O=C(Nc1ccc(NC(=O)c2ccc(Br)cc2)c(Cl)c1)c1ccc(Br)cc1 | -1% |
| CCc1ccc(OCC(=O)NCC(c2ccc(OC)cc2)N2CCOCC2)cc1 (stereo not drawn) | -7% |
| COc1ccc(-c2nn(-c3ccc(F)cc3)c3c2cnc2ccc(F)cc23)cc1OC | 0% |
| CCc1ccc(Oc2nc3c(C)cccn3c(=O)c2/C=C(\C#N)c2nc3ccccc3s2)cc1 | -11% |
| Cc1ccc(OCc2cc(=O)n3c(-c4ccccc4)csc3n2)cc1 | -21% |
| COc1ccc(COCC(O)CN2CCCC(C(F)(F)F)C2)cc1 (stereo not drawn) | 4% |
| CC(C)(C)OC(=O)N1CCC(c2c(C(=O)NCc3ccccn3)cnn2-c2ccccc2Cl)CC1 | -3% |
| O=C(c1ccccc1)N1CCc2cc(CNS(=O)(=O)c3ccc(Cl)s3)ccc21 | 9% |
| CCCc1cc(=O)[nH]c2nnc(SCC(=O)Nc3cccc(C)c3)n12 | -1% |
| Cc1ccc(CNC(=O)CSc2nc3ccsc3c(=O)n2-c2ccc(Br)cc2)cc1 | 6% |
| O=C(c1ccc(Cl)cc1)N1CCN(CCc2ccncc2)CC1 | -7% |
| COc1ccc(-c2nc(SCC(=O)Nc3cccc(C(C)=O)c3)n[nH]2)cc1 | -9% |
| COc1ccc(C)cc1NC(=O)Cn1cc(S(=O)(=O)Cc2ccccc2Cl)c2ccccc21 | 0% |
| COc1ccc(C(=O)Nc2ccc3c(c2)CCCN3S(=O)(=O)c2ccc(C)cc2)cc1 | 0% |
| O=C(CSc1nc2c([nH]c3ccccc32)c(=O)n1-c1cccc(C(F)(F)F)c1)N1CCCC1 | 0% |
| Cc1ccc(CSc2cn(CC(=O)N3CCCC3)c3ccccc23)cc1 | -39% |
| CCOC(=O)c1c(C)oc2nc(C)nc(Nc3cccc(OC)c3)c12 | -4% |
| O=C(CSc1nc2ccccc2n1Cc1cccc(C(F)(F)F)c1)NCc1ccccc1 | -2% |
| O=C(Nc1sc2c(c1C(=O)Nc1ccccc1)CCC2)c1ccc(Br)cc1 | -7% |
| CC(=O)Nc1ccccc1-c1nc2ccccc2n(Cc2cccc(Br)c2)c1=O | 0% |
| Cc1ccc(-c2cc(NC(=O)C(C)Oc3ccc(C)c(C)c3)on2)cc1 (stereo not drawn) | -13% |
| CC1CCN(S(=O)(=O)c2ccc3c(c2)oc(=O)n3CC(=O)NC(C)c2ccccc2)CC1 (stereo not drawn) | ? |
| O=c1oc2ccccc2cc1-c1cn2cc(Cc3ccccc3F)sc2n1 | -16% |
| CC(=O)Nc1cc(C(=O)NCc2ccccc2)ccc1Sc1ccc(C)cc1 | -1% |
| Cc1cn2c(=O)cc(COC(=O)c3cccc(NC(=O)COc4ccccc4Cl)c3)nc2s1 | -70% |
| CC(=O)c1c(C)oc2ccc(N(C(=O)Oc3ccccc3)S(=O)(=O)c3ccc(C(C)(C)C)cc3)cc12 | 13% |
| O=C(CN1C(=O)C2(SCC(=O)N2c2cccc(Cl)c2)c2ccccc21)NC1CCCCC1 (stereo not drawn) | 0% |
| CC(C)CCNC(=O)c1cnc2sc(N3CCCCCC3)nn2c1=O | 13% |
| CCN(C(=O)c1cc2c(=O)n(CC)c3ccccc3c2s1)c1cccc(C(F)(F)F)c1 | -3% |

An excerpt (hit frequency here may not be typical).
